Measles inh: inhibitors of measles virus growth in infected cells | infected Vero cells, GFP fluorescence, 64 h; stronger effect = lower value | z-score (no concentration beside the values) | actives 0.1% (n = 33,000);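 active means z-score under -3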;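 further: score is relative to mean and SD of the compound wells of a plate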
An asterisk follows results filed as active. A portion of the library; rates above refer to the full screens.

SMILES	Measles inh
C=CCN(C(=O)c1ccc(N2CC3CC(C2)c2cccc(=O)n2C3)c(NC(=O)c2cccnc2)c1)c1ccccc1 (configuration not stated)	1.22
O=C1c2ccc([N+](=O)[O-])cc2C(=O)N1CC1CCCO1 (configuration not stated)	1.26
CCN1c2ccc(NC(=O)c3coc(=O)c4ccccc34)cc2C2C=CC=CC21 (configuration not stated)	0.61
Cc1cc(C)cc(C(=O)Nc2cc(C)c3c(=O)oc4ccccc4c3n2)c1	0.6
Cc1nc(-c2ccc(S(=O)(=O)N3CCC(Cc4ccccc4)CC3)cc2)cs1	0.44
Cc1cc(Cl)nc(Cl)c1C(N)=O	-0.34
CCCN1CCN(C(=O)CN2C(=O)CSc3ccc(S(=O)(=O)N4CCOCC4)cc32)CC1	1.14
Cc1ccc(N(Cc2ccc(C(=O)NC(C)c3ccccc3)cc2)S(C)(=O)=O)cc1C (configuration not stated)	-0.67
CCOC(=O)c1cnc2c(OC)cccc2c1Nc1ccc(N(C)C)cc1	1.67
CC(C)(C)NC(=O)CSc1nc2ccc(N3C(=O)c4ccccc4C3=O)cc2s1	0.63
COc1ccc(C2C(C(=O)OC3CCCC3)=C(C)NC3=C2C(=O)CC(C)(C)C3)cc1Br (configuration not stated)	-0.69
COc1ccccc1C=Cc1nc2ccccc2n1CCOc1ccccc1	-0.63
CCCCCCCOC(=O)C1=C(C)Nc2ncnn2C1c1ccccc1[N+](=O)[O-] (configuration not stated)	0.3
O=C(Cc1ccc(-n2c(=S)[nH]c3ccccc3c2=O)cc1)NCCc1ccccc1Cl	-0.83
CC(C)CCNC(=O)CCS(=O)(=O)c1ccc(Br)cc1	0.13
COc1ccc(C2C3=C(CC(c4ccc(C(F)(F)F)cc4)CC3=O)Nc3ccccc3N2C(=O)C(F)(F)F)cc1 (configuration not stated)	0.34
CCSCCOC(=O)c1[nH]c2c(c1C)C(=O)CC(c1ccc(C(C)(C)C)cc1)C2 (configuration not stated)	2.67
O=C(c1ccc(F)cc1)c1cc2ccccc2o1	-1.11
Cc1ccc(NC(=O)c2sc3ccccc3c2Cl)cc1	0.56
Cc1ccc2oc(-c3ccc([N+](=O)[O-])cc3)cc(=O)c2c1	1.25
Cc1cc([N+](=O)[O-])ccc1NC(=O)c1ccc(F)cc1	-0.73
O=c1oc2ccccc2n1CSC1=NCCS1	-0.34
CCC(=O)N1CCc2cc(S(=O)(=O)NCCN3CCCCC3CC)ccc21 (configuration not stated)	1.9
O=C(C1CCC(CNc2nc(=S)[nH]c3ccccc23)CC1)N1CCN(c2cccc(Cl)c2)CC1 (configuration not stated)	0.53
Nc1nc2ccc(C(=O)N3CCOCC3)cc2s1	1.02
SMILES	Measles inh
CCc1cccc(NC(=O)CCc2nc(-c3ccc(OC)cc3)no2)c1	0.14
COc1ccc(-c2cc(C(=O)NCCc3ccc(OC)c(OC)c3)no2)cc1	-0.08
CC(=O)Nc1ccc(N=Cc2ccc(C=Nc3ccc(NC(C)=O)cc3)cc2)cc1	0.52
CCN1CCCC1CNC(=O)c1cn(C2CCCCC2)c(=O)c2c1c1ccccc1n2C (configuration not stated)	-1.71
CCCC12CN3CC(C)(CN(C1)C3c1cccc([N+](=O)[O-])c1)C2=O (configuration not stated)	-0.51
O=C(NCc1ccncc1)C(=O)Nc1ccccc1F	0.23
CCOC(=O)c1c(-c2ccccc2)csc1NC(=O)COc1cccc(C)c1C	2
COc1cc2c(cc1OC)C(COc1ccccc1OC)N(C(=O)c1ccc(C)c(C)c1)CC2 (configuration not stated)	-0.03
O=[N+]([O-])c1cccc(CSc2nc(NCCc3ccccc3)c3ccccc3n2)c1	-2.36
CCOc1ccc(C2Oc3ccc4ccccc4c3C=C2[N+](=O)[O-])cc1OC (configuration not stated)	1.38
COC(=O)c1cn(C(=O)COc2ccc(C(C)C)cc2)c2ccccc12	-0.42
CCC(=O)N1CCc2cc(Br)cc(S(=O)(=O)N3CCN(Cc4ccccc4)CC3)c21	-0.17
O=C1CC(c2ccccc2)Sc2nc3ccccc3n21 (configuration not stated)	-0.09
Cc1cc(C)c(NC(=O)CNC2CC(C)(C)NC(C)(C)C2)c(C)c1	-0.03
COc1ccc(C2NC(=O)NC(O)(C(F)(F)F)C2C(=O)c2ccc(Cl)cc2)cc1 (configuration not stated)	0.05
COc1ccccc1NC(=O)CSC1=NC(c2ccccc2)CC(=O)N1 (configuration not stated)	0.01
Cc1ccc(N2CN=C3SCC(=O)N3C2)cc1C	-0.62
COCc1cc(=O)[nH]c(Nc2nc3ccccc3o2)n1	-0.73
COC(=O)c1ccc(C2C3=C(CC(c4ccc(C)cc4)CC3=O)Nc3ccccc3N2C(C)=O)cc1 (configuration not stated)	-0.15
COc1ccc(C2C(C(=O)NC3CCCCC3)CCC(=O)N2c2ccc(OC)cc2)cc1 (configuration not stated)	2.31
O=S(=O)(Nc1cccc(C(F)(F)F)c1)c1cnc[nH]1	0.38
Cc1ccc(NC(=O)c2cc3cc(Br)ccc3oc2=O)c(C)c1	-0.55
Clc1ccc(C2CC(c3ccc(Br)cc3)Nc3ncnn32)cc1 (configuration not stated)	-0.48
COc1ccc(C=C2c3cc(C)ccc3-c3ncccc32)cc1	-0.22
CCOC(=O)c1ccc(NCCc2ccc(Cl)cc2)c([N+](=O)[O-])c1	-0.9
SMILES	Measles inh
Cc1ccc(Cc2c(C)nc3nc(SCC(=O)NCC4CCCO4)nn3c2C)cc1 (configuration not stated)	-0.06
CCOC(=O)c1c(NC(=O)c2cccnc2)sc2c1CCC(C(C)(C)C)C2 (configuration not stated)	-0.3
COc1ccccc1OCC(=O)Nc1ncc(Cc2cccc(C)c2)s1	0.81
COCCNC(=O)CN(c1cccc(C)c1C)S(=O)(=O)c1ccccc1	-1.33
O=c1oc2ccccc2n1CCOc1ccccc1	-0.1
COc1ccc(S(=O)(=O)N2CCC(C(=O)Nc3ccc4c(c3)OCO4)CC2)cc1	-0.27
CCN(CC)c1ncnc2sc(C(=O)N3CCN(Cc4ccccc4)CC3)c(C)c12	0.88
CSc1nc(-c2ccccc2)nc2[nH]ccc(=O)c12	-0.13
COc1ccc(S(=O)(=O)Nc2ccc3c(c2)OCO3)cc1OC	-0.52
O=C1CCN(C(=O)C(F)(F)F)c2cc(Br)ccc2N1	0.08
CN1CCN(CC(=O)N2c3ccccc3Sc3ccccc32)CC1	-0.44
CCOC(=O)C1=C(C)Nc2nc(SCc3cccc(Cl)c3)nn2C1c1ccc(Cl)cc1 (configuration not stated)	-0.38
O=C(CN1C(=O)CSc2ccc(S(=O)(=O)N3CCOCC3)cc21)NC1CCCCCCC1	-1.36
CCc1cc(=O)oc2c(C)c(OCC(=O)O)ccc12	0.62
O=C(NCCC1=CCCCC1)C1CC(=O)N(C2CCCC2)C1 (configuration not stated)	0.35
C=CCNC(=O)C1CCC(=O)N1C(C)C (configuration not stated)	-0.55
CCCCOc1ccc(S(=O)(=O)Nc2ccccn2)cc1	0.49
COc1cccc(C=Nc2ccc(S(=O)(=O)Nc3ccc(F)cc3)cc2)c1O	0.41
Cc1ccc(C(=O)Nc2ccc3oc(-c4ccc(Cl)cc4)nc3c2)cc1[N+](=O)[O-]	-1.08
Nc1cc(OC(=O)c2cccc3ccccc23)nn1S(=O)(=O)c1ccccc1	-0.92
COc1cc(N(C)C)c([N+](=O)[O-])cc1C(=O)N1CCN(CCO)CC1	0.2
CCc1ccc(C2=Nn3c(nnc3-c3cccc(F)c3)SC2)cc1	-0.63
Cc1nnc(C)c2c(C)[nH]c(C)c12	-0.83
COC(=O)COc1ccc2c(=O)c(-c3ccc(Cl)cc3)c(C(F)(F)F)oc2c1	0.7
O=C(Nc1nccs1)c1cc2cc(Cl)ccc2oc1=O	-0.04

Next section; it opens with the 5 that closed the last part.
SMILES	Measles inh
COc1cc(N(C)C)c([N+](=O)[O-])cc1C(=O)N1CCN(CCO)CC1	0.2
CCc1ccc(C2=Nn3c(nnc3-c3cccc(F)c3)SC2)cc1	-0.63
Cc1nnc(C)c2c(C)[nH]c(C)c12	-0.83
COC(=O)COc1ccc2c(=O)c(-c3ccc(Cl)cc3)c(C(F)(F)F)oc2c1	0.7
O=C(Nc1nccs1)c1cc2cc(Cl)ccc2oc1=O	-0.04
CCC(=O)N1CCc2cc(S(=O)(=O)CCC(=O)N(C)c3ccc(OC)cc3)ccc21	-0.11
CCOc1cccc2c1OC1(C)CC2NC(=O)N1c1cccc(SC)c1 (configuration not stated)	0.23
Cc1ccc(OCC(=O)N2CCc3ccccc3C2)c(Br)c1	-0.86
COc1cc2c(cc1OC)C(=O)NC1(CCCC1)C2	-0.24
COc1cc(C=C2CCCC3=C2NC(=S)NC3c2cc(OC)c(OC)c(OC)c2)cc(OC)c1OC (configuration not stated)	-1.67
COc1nc(-c2cccs2)cc(-c2ccc(C(C)C)cc2)c1C#N	0.31
Cc1cc(C)cc(NC(=O)c2cc3ccccc3oc2=O)c1	-0.12
Cc1ccc(CNC(=O)c2ccc(Cn3c(=S)[nH]c4ccc(N5CCOCC5)cc4c3=O)cc2)cc1	-0.22
Cn1c2ccccc2c2c(C(=O)NCCN3CCOCC3)cn(C3CCCC3)c(=O)c21	-0.37
Cc1cc(C)c2oc(-c3cc(NC(=O)c4ccc(Br)o4)ccc3Cl)nc2c1	-0.55
COc1ccc(OCC(=O)Nc2ccc3ccccc3c2)cc1	1.53
O=C(c1ccco1)N1CCN(c2ccc([N+](=O)[O-])c(NCc3ccco3)c2)CC1	-0.39
O=C(Cc1cccs1)N1CCN=C1SCc1ccccc1	0.83
COc1ccc2ccccc2c1C1N=C(SCc2ccc(F)cc2)NC(C)=C1C(C)=O (configuration not stated)	-1.13
CCOc1ccc(C(c2c(O)sc3ccccc3c2=O)c2c(O)sc3ccccc3c2=O)cc1	0.66
COc1cccc(NC(=O)Cn2cnc3sc4c(c3c2=O)CCCC4)c1	-0.62
COc1cc(C(=O)N2CCN(C(=O)C3CC3)CC2)cc(OC)c1OC	0.19
Cc1ccc(C(=O)CC2(O)C(=O)N(CC(N)=O)c3ccccc32)cc1 (configuration not stated)	0.36
CC(=O)N1CCc2cc(NCc3ccc([N+](=O)[O-])cc3)ccc21	2.33
CC1CC(C)CN(S(=O)(=O)c2ccc(C(=O)Nc3cccc(-c4nc5ccccc5s4)c3)cc2)C1 (configuration not stated)	0.44
COc1ccc2nc3sc(C(=O)N4CCN(Cc5ccc6c(c5)OCO6)CC4)cc3cc2c1	0.61
CC1(C(=O)NC2CCCC2)CCC(=O)N1CCc1ccc(Cl)cc1 (configuration not stated)	0.42
COC(=O)c1ccc(N=c2oc3c(C)ncc(CO)c3cc2C(=O)Nc2cccc(C(F)(F)F)c2)cc1	-0.14
Cc1noc(C)c1S(=O)(=O)N1CCC(C(=O)N2CCc3ccccc3C2)CC1	0.49
Cc1ccccc1NC(=O)c1cccc(N2C(=O)C3CCC(C)CC3C2=O)c1 (configuration not stated)	-0.83
SMILES	Measles inh
O=C(CC(C(=O)N1CCc2ccccc21)n1ccnc1)N1CCOCC1 (configuration not stated)	-0.2
CCOC(=O)c1c(C)oc2ccc(N(C(C)=O)S(=O)(=O)c3cc(C)ccc3C)cc12	-0.46
COC(=O)C(NC(=O)C(C)(C)C)C12CC3CC(CC(C3)C1)C2 (configuration not stated)	-0.95
COc1ccc(Oc2coc3cc(OCc4ccc(F)cc4)ccc3c2=O)cc1	1.61
O=C(NCc1ccc2c(c1)OCO2)c1cc2nc(-c3ccc(Cl)cc3)cc(C(F)(F)F)n2n1	0.19
Cc1c(NC(=O)COc2ccc(Br)cc2)c(=O)n(-c2ccccc2)n1C	-0.63
O=C(CCNS(=O)(=O)c1cccc2nonc12)N1CCN(c2cccc(Cl)c2)CC1	-0.29
Clc1ccc(-c2ncnn2-c2ccc(Cl)cc2)cc1	-0.77
O=C(Nc1ccc(F)cc1)c1cnc2sccn2c1=O	0.31
COc1ccc2c(c1)CCCC21SC(NC(C)=O)=NN1C(C)=O (configuration not stated)	1.45
COc1cccc(CNC(=O)C2CCCN(S(=O)(=O)c3ccc(Br)s3)C2)c1 (configuration not stated)	1.37
CCC1=Nc2cc(C(=O)NCc3ccc4c(c3)OCO4)ccc2Sc2ccc(Cl)cc21	-0.84
O=C(Oc1cccc2cccnc12)c1cccc(N2C(=O)C3C4C=CC(C4)C3C2=O)c1 (configuration not stated)	0.53
COC(=O)c1c(NC(=O)c2ccc([N+](=O)[O-])cc2Cl)sc2c1C(C(=O)OC)CC2 (configuration not stated)	0.28
O=C(Nc1cccc(C(F)(F)F)c1)C1CCN(S(=O)(=O)c2cccc3nonc23)CC1	0.95
COc1ccccc1N=C(N)N=C(N)N	0.72
Cc1cc(OCC(=O)Nc2cccc(-c3nc4ncccc4o3)c2C)ccc1Cl	-0.15
CN1C(=O)C2CC=C(Cl)CC2C1=O (configuration not stated)	0.47
CC(=O)Nc1ccc(Oc2ccc3c(c2)C(=O)N(c2cccc(C)c2)C3=O)cc1	-0.56
CC(C)CNS(=O)(=O)N(C)C	0.26
COc1ccc(CNS(=O)(=O)c2ccc3[nH]c(=O)sc3c2)c(OC)c1	0.86
CCc1ccc(NC(=O)CCN2C(=O)c3ccncc3C2=O)cc1	-0.02

In the list so far, these contain a nitro group on carbon.
SMILES	Measles inh
O=C1c2ccc([N+](=O)[O-])cc2C(=O)N1CC1CCCO1 (configuration not stated)	1.26
CCCCCCCOC(=O)C1=C(C)Nc2ncnn2C1c1ccccc1[N+](=O)[O-] (configuration not stated)	0.3
Cc1ccc2oc(-c3ccc([N+](=O)[O-])cc3)cc(=O)c2c1	1.25
Cc1cc([N+](=O)[O-])ccc1NC(=O)c1ccc(F)cc1	-0.73
CCCC12CN3CC(C)(CN(C1)C3c1cccc([N+](=O)[O-])c1)C2=O (configuration not stated)	-0.51
O=[N+]([O-])c1cccc(CSc2nc(NCCc3ccccc3)c3ccccc3n2)c1	-2.36
CCOc1ccc(C2Oc3ccc4ccccc4c3C=C2[N+](=O)[O-])cc1OC (configuration not stated)	1.38
CCOC(=O)c1ccc(NCCc2ccc(Cl)cc2)c([N+](=O)[O-])c1	-0.9
Cc1ccc(C(=O)Nc2ccc3oc(-c4ccc(Cl)cc4)nc3c2)cc1[N+](=O)[O-]	-1.08
COc1cc(N(C)C)c([N+](=O)[O-])cc1C(=O)N1CCN(CCO)CC1	0.2
O=C(c1ccco1)N1CCN(c2ccc([N+](=O)[O-])c(NCc3ccco3)c2)CC1	-0.39
CC(=O)N1CCc2cc(NCc3ccc([N+](=O)[O-])cc3)ccc21	2.33
COC(=O)c1c(NC(=O)c2ccc([N+](=O)[O-])cc2Cl)sc2c1C(C(=O)OC)CC2 (configuration not stated)	0.28

High-throughput results (PubChem)
